HNF4A DNA FP = change in binding of human HNF4 alpha to DNA; P41235; HNF4a-FITC DNA binding, fluorescence polarization, 1 h; activity change, % at 10 µM; actives 0.3% (n = 360,000); AID 1224865; in the data active means activity change above about 30%, passing the limit was not always enough;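 further: controls were the assay level and a saturating level of protein; the project sought stronger binding though the title names inhibitors; some compounds called inactive have numbers as strong as hits; positive values seem to mean higher polarization but the record does not say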
AF4-AF9 inh = MLL-AF4/AF9 protein interaction inhibition; AlphaScreen, biotin-AF4 peptide binding to FLAG-AF9; inhibition, % at 10 µM; actives 0.47% (n = 350,000); AID 651704;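 active means every replicate reaching a set inhibition limit, whatever the replicate mean, cut at about 25% in these data; inconclusive means mean inhibition reaches that limit but some replicates miss it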;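 further: 0% = plate neutral control median and 100% = total signal loss; the record names both 10 and 1 µM as test concentration; the first replicate is given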
Target sequence (P42568 whole entry, looked up): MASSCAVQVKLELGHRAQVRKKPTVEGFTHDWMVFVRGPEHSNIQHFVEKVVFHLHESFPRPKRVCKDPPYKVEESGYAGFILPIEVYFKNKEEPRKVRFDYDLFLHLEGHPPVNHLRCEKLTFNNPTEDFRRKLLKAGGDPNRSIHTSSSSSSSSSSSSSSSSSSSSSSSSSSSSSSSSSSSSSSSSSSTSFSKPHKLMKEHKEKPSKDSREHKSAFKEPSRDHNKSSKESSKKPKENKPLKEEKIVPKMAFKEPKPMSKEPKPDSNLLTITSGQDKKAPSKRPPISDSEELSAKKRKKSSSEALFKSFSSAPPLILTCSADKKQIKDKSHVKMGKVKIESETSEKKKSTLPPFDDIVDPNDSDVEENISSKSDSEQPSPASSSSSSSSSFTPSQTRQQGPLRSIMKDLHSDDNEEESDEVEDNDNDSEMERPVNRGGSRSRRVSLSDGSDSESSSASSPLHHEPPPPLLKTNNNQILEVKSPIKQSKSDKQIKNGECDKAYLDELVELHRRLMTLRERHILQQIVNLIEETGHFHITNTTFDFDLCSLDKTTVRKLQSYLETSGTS
ALR H2O2 inh = blocks human ALR sulfhydryl oxidase activity; purified ALR, DTT oxidation, H2O2 HRP-luminol luminescence; inhibition, % (concentration not given with the values); actives 3.8% (n = 290,000);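 active means mean and each replicate at 75% or more; inconclusive means only one of the two met; inactive means neither met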;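 further: stock transfer was 7.5 nL into about 7.5 µL; 0% = neutral wells and 100% = wells with inactivated enzyme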
Target sequence (P55789 whole entry, looked up): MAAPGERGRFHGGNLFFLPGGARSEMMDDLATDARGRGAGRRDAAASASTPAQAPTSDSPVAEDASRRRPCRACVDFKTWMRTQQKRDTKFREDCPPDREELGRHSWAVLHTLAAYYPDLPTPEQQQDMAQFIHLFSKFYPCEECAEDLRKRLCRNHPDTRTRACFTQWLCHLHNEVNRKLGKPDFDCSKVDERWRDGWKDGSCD
Ecoli rRNA inh = inhibits bacterial ribosomal RNA function over humanized ribosomes; E. coli WT GFP vs humanized-ribosome RFP mutants, fluorescence, 24 h; stronger effect = lower value; DMSO median 0, no signal -100; GFP signal change (wild-type ribosome), % (concentration not given with the values); actives 1.6% (n = 350,000); AID 720706;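 active means significant combined selectivity score with lowered wild-type GFP, culture density cut under 30%, mutant RFP and density less affected; inactive means any of these conditions unmet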; further: one replicate is shown; some compounds called inactive have numbers as strong as hits
E coli growth = E. coli growth inhibition; OD600 absorbance (test concentration not listed); Escherichia coli growth, OD600, 23 h; stronger effect = lower value; actives 0.21% (n = 330,000);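 active means OD600 absorbance below the run mean of sample wells minus 3.6 SD, in any replicate, cut at about 0.56 in these data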;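 further: stock transfer was 300 nL into about 60 µL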
Vif TR-FRET = inhibitors of Vif binding to APOBEC3G peptide, primary screen, biochemical, TR-FRET, GST-Vif 1-94, biotin-A3G peptide, dose response retest (AID 1117319); TR-FRET GST-Vif / biotin-A3G peptide binding; higher % means a stronger effect; test concentration not given here; strong numbers were not always called active; inhibition, %; hits with a dose series show IC50 in µM; actives 0.57% (n = 260,000);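 active means above the screen mean plus three standard deviations and confirmed in dose response; inconclusive means results disagree or hit not tested in dose response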;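 further: Vif residues 1-94 fused to GST binding biotinylated APOBEC3G peptide 110-148; 0% = full assay without inhibitor and 100% = GST in place of GST-Vif; retest series ran down from 100 µM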
FGF22 binding = binders of recombinant human FGF22 by thermal shift | SYPRO orange fluorescence; percent of sucrose octasulfate shift, DMSO zero | calls only at 9.99 µM | actives 1.5% (n = 340,000);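 active means melting point raised past a set limit in the mean and every replicate; inconclusive means no clear call; three in four hits are not shown here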
Target sequence (Q9HCT0 whole entry, looked up): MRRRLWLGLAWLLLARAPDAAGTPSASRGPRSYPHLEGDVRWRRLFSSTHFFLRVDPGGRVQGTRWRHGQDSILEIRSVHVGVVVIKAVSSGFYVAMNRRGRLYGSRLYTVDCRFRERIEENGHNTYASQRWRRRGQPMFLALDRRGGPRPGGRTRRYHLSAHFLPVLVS
Ecoli rRNA inh OD600 = second read-out of Ecoli rRNA inh, no call of its own (marks repeat the call); OD600 change, %; measured here: OD600 growth;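 optical density of the mix in the first replicate; 0 = DMSO median and -100 = no signal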
Ecoli rRNA inh RFP = second read-out of Ecoli rRNA inh, no call of its own (marks repeat the call); RFP signal change, %; measured here: RFP humanized mutant strains;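 first replicate; 0 = DMSO median and -100 = no signal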
* = called active by the depositor; i = inactive; ? = inconclusive; nt = not tested or not shown.

No. | SMILES | HNF4A DNA FP | AF4-AF9 inh | ALR H2O2 inh | Ecoli rRNA inh | Ecoli rRNA inh OD600 | Ecoli rRNA inh RFP | E coli growth | Vif TR-FRET | FGF22 binding
1 | Cc1ccc(C(=O)NCC(=O)N2CCN(S(=O)(=O)c3cccs3)CC2)s1 | 1.1 | -5.6 | 0 | 13 | 13 | -2.5 | 0.69 | nt | nt
2 | Cc1nc2cc(-c3cccc(F)c3)nn2c(C)c1CCC(=O)N1CCN(c2ccccn2)CC1 | 0.0 | 3.7 | -13 | 4 | 7 | -0.8 | 0.75 | nt | i
3 | CCOc1ccccc1N(CC)C(=O)c1ccc2c(=O)n3c(nc2c1)CCCCC3 | -0.1 | 1.5 | -2 | -12 | -13 | -0.8 | 0.66 | nt | i
4 | C=CCOc1ccc(CNn2nnnc2N)cc1 | 2.9 | nt | -2 | -3 | 1 | -0.5 | 0.75 | ? | nt
5 | O=C(CSc1nnnn1C1CC1)Nc1ccc(S(=O)(=O)N2CCOCC2)cc1 | 2.6 | -3.7 | 3 | nt | nt | nt | 0.73 | -7% | i
6 | O=C(C[C@@H]1C=C[C@H](NC(=O)CC2CC2)[C@H](CO)O1)NCC(F)(F)F | nt | -3.8 | nt | 1 | 0 | 0.5 | nt | nt | i
7 | CN(CC(=O)NC1CCCc2ccccc21)S(=O)(=O)c1ccc2c(c1)c(=O)n(C)c(=O)n2C (stereo not drawn) | 3.4 | 4.6 | -5 | 8 | 13 | -0.4 | 0.7 | -13% | i
8 | C/C(=N\NC(=O)CC1N=C(Cc2ccccc2)NNC1=O)c1ccncc1 (stereo not drawn) | 0.7 | -2.6 | 1 | 7 | 2 | -2.3 | nt | -8% | i
9 | O=c1[nH]c(/C=C\c2cccnc2)c([N+](=O)[O-])c(=O)[nH]1 | 1.6 | -3.8 | -5 | 4 | 8 | -4.4 | 0.68 | nt | nt
10 | Cc1ccc(C(=O)C[n+]2cc(Br)cc(Br)c2)cc1 | 1.8 | nt | -4 | 11 | 10 | 5.5 | 0.64 | -19% | i
11 | CC(C)(C)c1ccc(OCC(=O)N2CCN(c3ccccn3)CC2)cc1 | -1.0 | 0.5 | -7 | -29 | -44 | -7.0 | 0.6 | 4% | i
12 | CO[C@H]1CC[C@H]2CCN(C)C(=O)[C@@H](C)[C@H](OC)CN(C)C(=O)c3cccc(C#N)c3OC[C@H]1O2 | nt | -2.2 | nt | 6 | 9 | 3.1 | nt | nt | i
13 | NC(=O)c1ccc(N2CCN(S(=O)(=O)c3cccs3)CC2)c([N+](=O)[O-])c1 | 5.2 | 2.2 | nt | -6 | 0 | 3.9 | 0.62 | nt | i
14 | Fc1cccc(Cc2c(-c3cccc(Br)c3)nc3ccc(Cl)cn23)c1 | 10 | 0.4 | nt | -12 | -27 | -8.6 | nt | nt | i
15 | CC1Oc2ccccc2N(Cc2ccc(F)cc2)C1=O (stereo not drawn) | 2.6 | -1.3 | 0 | -4 | 1 | 1.3 | 0.68 | -1% | i
16 | COCCCn1c2nc3ccccc3nc2c2c(=O)n(-c3ccccc3OC)c(C)nc21 | nt | nt | -12 | nt | nt | nt | 0.69 | 20% | nt
17 | COc1cc(OC)c(CN2CCCN(C)CC2)cc1Br | -0.9 | -2.5 | nt | 14 | 7 | 1.1 | 0.65 | 1% | i
18 | COc1cccc(NC(=O)N[C@H]2CC[C@H](CC(=O)Nc3ccccc3)O[C@H]2CO)c1 | nt | 0.4 | nt | 0 | -11 | -1.5 | nt | nt | i
19 | COc1ccc(CC(=O)Oc2ccc(C(C)(C)C)cc2)cc1S(=O)(=O)N1CCOCC1 | 6.3 | 1.0 | 4 | 2 | -14 | 2.1 | 0.67 | -1% | i
20 | COc1ccc(/C=C2\SC(=S)N(CCC(=O)N3CCCCC3CCO)C2=O)cc1 (stereo not drawn) | 0.8 | 5.7 | -5 | -5 | 1 | 2.0 | 0.69 | nt | i
21 | CCC1C(=O)CC(c2ccco2)NC1c1ccco1 (stereo not drawn) | 0.1 | nt | -8 | nt | nt | nt | 0.76 | 1% | nt
22 | COc1ccc2nc(N3C(=O)CC(Cc4cc(C)cc(C)c4)C3=O)sc2c1 (stereo not drawn) | 0.1 | nt | -1 | nt | nt | nt | 0.74 | 4% | nt
23 | CCOc1ccc(Cl)cc1Nc1nc(NCCO)nc(N2CCCC2)n1 | 1.3 | 4.1 | 0 | 2 | -1 | -6.6 | 0.68 | nt | i
24 | C[C@@H]1CN([C@H](C)CO)C(=O)c2cc(C#CCc3ccccc3)cnc2O[C@@H]1CN(C)Cc1ccccn1 | nt | 4.5 | nt | -5 | 5 | -3.4 | nt | nt | i
25 | NNc1nc2sc3c(c2c(=O)n1Cc1ccccc1)CCC3 | 9.7 | 3.2 | 47 | -34* | 6.4* | 3.3* | 0.59 | nt | i
26 | CC(=O)N1c2ccc(S(=O)(=O)NCC3CCC(C(=O)N4CCCC(C)C4)CC3)cc2CC1C (stereo not drawn) | 1.0 | -0.3 | 1 | -4 | -14 | 2.5 | 0.71 | -2% | i
27 | COc1ccc(-c2csc(C(O)c3cccnc3)n2)cn1 (stereo not drawn) | -2.3 | 2.0 | nt | 3 | -6 | -4.0 | nt | nt | i
28 | CCCC(=O)Nc1ccc2c(c1)OC[C@H](C)N(Cc1ccccc1)C[C@H](C)[C@@H](OC)CN(C)C2=O | nt | 0.8 | nt | -1 | -10 | 11 | nt | nt | i
29 | CCC(=O)N1C[C@H](C)[C@@H](OC)CN(C)C(=O)c2cc(NC(=O)Nc3ccc(Cl)cc3)ccc2OC[C@H]1C | nt | 4.4 | nt | -1 | -11 | 0.0 | nt | nt | i
30 | CC(C)NC(=O)Nc1ccc2c(c1)C(=O)N([C@@H](C)CO)C[C@@H](C)[C@H](CN(C)C(=O)Cc1ccccc1)OCCCC[C@@H](C)O2 | nt | 2.2 | nt | 0 | 1 | 0.8 | nt | nt | i

Laid out differently: 4 of the compounds above.
Every second line gives: HNF4A DNA FP | AF4-AF9 inh | ALR H2O2 inh | Ecoli rRNA inh | Ecoli rRNA inh OD600 | Ecoli rRNA inh RFP | E coli growth | Vif TR-FRET | FGF22 binding
2	Cc1nc2cc(-c3cccc(F)c3)nn2c(C)c1CCC(=O)N1CCN(c2ccccn2)CC1
 : 0.0 | 3.7 | -13 | 4 | 7 | -0.8 | 0.75 | nt | i
3	CCOc1ccccc1N(CC)C(=O)c1ccc2c(=O)n3c(nc2c1)CCCCC3
 : -0.1 | 1.5 | -2 | -12 | -13 | -0.8 | 0.66 | nt | i
4	C=CCOc1ccc(CNn2nnnc2N)cc1
 : 2.9 | nt | -2 | -3 | 1 | -0.5 | 0.75 | ? | nt
5	O=C(CSc1nnnn1C1CC1)Nc1ccc(S(=O)(=O)N2CCOCC2)cc1
 : 2.6 | -3.7 | 3 | nt | nt | nt | 0.73 | -7% | i

The list goes on:
No. | SMILES | HNF4A DNA FP | AF4-AF9 inh | ALR H2O2 inh | Ecoli rRNA inh | Ecoli rRNA inh OD600 | Ecoli rRNA inh RFP | E coli growth | Vif TR-FRET | FGF22 binding
31 | Cc1ccc(C(=O)NCCc2nnc3ccc(SCC(=O)N4CCCCC4)nn23)cc1 | 4.4 | 4.2 | 89* | -1 | 2 | -4.0 | 0.69 | 5% | i
32 | Cc1ccc(S(=O)(=O)n2cnc3ccccc32)cc1 | -0.1 | nt | -8 | nt | nt | nt | 0.7 | -2% | nt
33 | COc1ccc(O)c(/C=N/NC(=O)CCC(=O)Nc2cccc(C)c2)c1 | -0.1 | 1.1 | -14 | -13 | -9 | 0.6 | nt | nt | i
34 | Cc1cc(C)nc(SCc2nnc(SCC(N)=O)n2Cc2ccco2)n1 | 3.5 | nt | 6 | nt | nt | nt | 0.68 | 2% | nt
35 | Cc1nc(NCc2ccccn2)c2ccccc2n1 | 0.7 | nt | nt | nt | nt | nt | 0.67 | 15% | nt
36 | CC(C)NC(=O)c1ccc(CONC(=O)OCc2ccccc2)cc1 | -0.1 | -0.4 | nt | 1 | -1 | -3.8 | nt | -5% | i
37 | CC1CN(S(=O)(=O)c2ccc(Cl)c(C(F)(F)F)c2)CC(C)O1 (stereo not drawn) | -1.8 | -1.7 | -2 | 17 | 21 | -5.3 | 0.71 | ? | i
38 | CCCNC(=O)Nc1ccc2c(c1)C(=O)N(C)C[C@H](OC)[C@@H](C)CN(S(C)(=O)=O)[C@@H](C)CO2 | nt | -23 | nt | 2 | 4 | 0.2 | nt | nt | i
39 | O=C(Nc1nccs1)c1cc2cc(Cl)ccc2oc1=O | -1.4 | 7.0 | -6 | 16 | 6 | 6.6 | 0.7 | -5% | i
40 | O=C(COC(=O)CCC(=O)c1ccc(Cl)cc1)NCC1CCCO1 (stereo not drawn) | -0.1 | nt | -6 | nt | nt | nt | 0.74 | -2% | nt
41 | O=C(NC(CO)C(O)c1ccc([N+](=O)[O-])cc1)C(Cl)Cl (stereo not drawn) | -2.8 | 0.6 | 4 | nt | nt | nt | 0.06* | nt | i
42 | COc1cccc(C(NC(C)=O)c2nc(-c3ccccc3OC)cs2)c1 (stereo not drawn) | 1.7 | -2.2 | nt | -17* | -5.7* | 3.7* | nt | nt | i
43 | C[C@@H]1CN([C@@H](C)CO)C(=O)c2cccc(NC(=O)C3CC3)c2O[C@@H]1CN(C)S(=O)(=O)c1ccc(Cl)cc1 | nt | -3.2 | nt | -5 | -1 | -4.9 | nt | nt | i
44 | Oc1ccc(Nc2nc(-c3cccnc3)cs2)cc1 | 0.8 | nt | 10 | nt | nt | nt | 0.58 | nt | nt
45 | Cc1c(Cl)cccc1NC(=S)NCCCN(C)C | 1.4 | 1.4 | -2 | 11 | 9 | 0.3 | 0.69 | 27% | i
46 | CC(=O)c1cc(-c2ccccc2)n(CC(=O)N2CCC(C)CC2)c1C | -1.2 | 5.5 | -5 | nt | nt | nt | 0.65 | 25% | i
47 | Cn1c(NCc2ccccc2)nc2c1c(=O)n(Cc1ccc(Br)cc1)c(=O)n2C | -7.9 | nt | -1 | nt | nt | nt | 0.71 | -4% | nt
48 | Cc1nc2ccc(S(=O)(=O)NCC(=O)N3CCN(c4ccccn4)CC3)cc2s1 | -2.2 | nt | -21 | nt | nt | nt | 0.71 | ? | nt
49 | Nc1nc(CSc2nnnn2-c2ccccc2)nc(N2CCCc3ccccc32)n1 | -0.1 | nt | -16 | nt | nt | nt | 0.71 | 13% | nt
50 | C[C@@H]1CCCCO[C@H](CN(C)Cc2ccccc2)[C@H](C)CN([C@@H](C)CO)C(=O)c2cc(NS(=O)(=O)c3cccs3)ccc2O1 | nt | 2.8 | nt | 1 | -8 | 2.6 | nt | nt | i
51 | C[N+]1(C2CCC3CCC2C3O)CCCC1 (stereo not drawn) | -1.0 | -16 | -6 | 11 | 13 | 1.7 | 0.68 | 10% | i
52 | CC(=O)c1cc(CN2CCN(Cc3ccc(C)cc3)C(CCO)C2)cs1 (stereo not drawn) | 2.0 | -0.1 | -1 | 19 | 10 | 1.8 | 0.7 | 7% | i
53 | COc1ccc(C)cc1NC(=O)CNC(c1ccccc1)c1ccccc1 | -0.2 | -6.7 | 35 | -10 | -18 | -1.2 | 0.71 | 0% | i
54 | O=C(Nc1ccc(F)cc1)N[C@H]1CC[C@@H](CCNC(=O)c2cc(Cl)cc(Cl)c2)O[C@H]1CO | nt | 0.2 | nt | -13 | -64 | 38 | nt | nt | i
55 | CCOc1ccc2[nH]c(C(=O)N/N=C/c3cccc(OC)c3OC)cc2c1 | -1.0 | 2.0 | -45 | -46 | -79 | -2.7 | nt | -9% | i
56 | O=c1[nH]c(CSc2ncc(C(F)(F)F)cc2Cl)nc2cc(C(F)(F)F)ccc12 | 10 | -7.9 | 7 | -1 | 0 | 0.0 | 0.66 | -25% | i

These rows are one share of the data; rates above refer to the full screens.
